# WNV NS2B-NS3 inh: inhibitors of WNV NS2B-NS3 protease, primary screen, biochemical, fluorogenic substrate | fluorogenic substrate Ex360/Em465; active compounds read low | Genome polyprotein (West Nile virus), P06935 | z-score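 (tested at a level between 10 and 100 µM)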 | 65,000 tested, 0.18% active | AID 577, 2007;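 active means z-score at -3 or under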;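 further: score is relative to mean and spread of the compound wells of a plate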
# Target sequence (P06935 1371-1501 limits assumed): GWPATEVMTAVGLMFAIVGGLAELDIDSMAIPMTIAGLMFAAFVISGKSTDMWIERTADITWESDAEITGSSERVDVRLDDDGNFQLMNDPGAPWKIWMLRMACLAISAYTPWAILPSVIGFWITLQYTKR
# Target sequence (P06935 1502-1679 limits assumed): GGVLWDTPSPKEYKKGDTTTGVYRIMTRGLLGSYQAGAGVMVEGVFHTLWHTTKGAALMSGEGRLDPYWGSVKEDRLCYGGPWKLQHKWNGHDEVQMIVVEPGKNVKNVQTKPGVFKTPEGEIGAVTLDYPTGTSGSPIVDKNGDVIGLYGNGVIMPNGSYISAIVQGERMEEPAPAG
# MT1-MMP promoter: inhibitors of MT1-MMP promoter transcription, cell-based, luciferase reporter, luminescence (AID 618) | 87,000 tested, 0.62% active | calls from a first round at 10 µM; hits with a dose series show EC50 in µM | MT1-MMP promoter luciferase reporter cells, luminescence;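 active means over half of the reporter light lost at 10 µM or EC50 under 50 µM; inactive means the rest and hits that failed the dose series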;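 further: actives suppress MT1-MMP promoter-driven transcription so potencies describe inhibitors; HT1080 fibrosarcoma cells; overnight exposure; toxic or luciferase-blocking compounds were not removed from the actives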
# Hsc70 ATP site: Hsc70 inhibitors, probe displacement, primary screen, biochemical, fluorescence polarization (AID 568). Heat shock cognate 71 kDa protein (Homo sapiens). Hsc70 fluorescence polarization, probe displacement; higher % means a stronger effect; strong numbers were not always called active. displacement, % at 20 µM; hits with a dose series show IC50 in µM. 83,000 tested, under 10 active;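 active means displacement above 50% without optical interference and an IC50 on retest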;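 further: ATPase domain with a fluorescein-tagged ATP probe; 0% = vehicle and 100% = excess ADP; read after one hour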
# * hit, by the source's call; i = inactive; · = not tested or not shown; + = active, no number. Not all compounds are listed; rates above refer to the full screens.
SMILES | WNV NS2B-NS3 inh | MT1-MMP promoter | Hsc70 ATP site
CC(=O)Nc1ccc(S(=O)(=O)NC2(C(F)(F)F)NC(=O)N(C3CCCCC3)C2=O)cc1 (stereo not given) | · | i | 3.3%
Cc1cc(C(=O)OCC(=O)NCCc2ccccc2)c(C)o1 | -1 | i | -4.3%
O=C(c1cc(-c2ccc3c(c2)OCO3)on1)N1CCOCC1 | 0.93 | i | -2.6%
O=C(O)c1oc2ccc(Br)cc2c1-n1cccc1 | -1.3 | i | 3.7%
O=C(Nc1ccc2oc(-c3cccc(F)c3)nc2c1)c1ccccc1F | · | i | 7.0%
O=C(Nc1nc2c(s1)CCCC2)C1COc2ccccc2O1 (stereo not given) | 0.39 | 2.4µM* | 2.6%
Cc1ccc(S(=O)(=O)NCc2ccc(C(=O)N3CCN(Cc4ccccc4)CC3)cc2)cc1 | · | i | -2.3%
CCOC(=O)c1ccc(Nc2nc(C)cc(C)c2C#N)cc1 | 0.1 | i | -1.2%
CCCn1c(=O)c2ccccc2n2c(SCc3nnc(-c4ccccc4Br)o3)nnc12 | -0.65 | i | -2.1%
O=C(O)C1CC=CCC1C(=O)Nc1cccc(C(=O)N2CCCCC2)c1 (stereo not given) | -0.08 | i | 2.0%
NC(CC(=O)OC1CCCCC1)C(=O)OC1CCCCC1 (stereo not given) | -1.4 | i | 9.4%
O=C(c1ccc(CS(=O)(=O)c2ccc(Br)cc2)o1)N1CCN(c2ccccn2)CC1 | -1.4 | i | -0.1%
O=S(=O)(NCC1CCCO1)c1ccc(S(=O)(=O)N2CCCC2)cc1 (stereo not given) | · | i | -0.2%
O=S(=O)(Nc1ccc(S(=O)(=O)N2CCCCC2)cc1)c1ccc(Br)s1 | -1.1 | i | 6.6%
CCSc1nc2ccccc2n1CC(=O)OC | 0.99 | i | 8.8%
O=S(=O)(NC1CCCCC1)c1cccc(-c2nnc(-c3ccccc3)o2)c1 | 0.27 | i | -3.1%
c1ccc(OCCCn2nnc(-c3ccc(N4CCOCC4)cc3)n2)cc1 | -1.1 | i | 4.1%
Cc1c(NC(=O)c2cc3nc(-c4ccc(Cl)cc4)cc(C(F)(F)F)n3n2)c(=O)n(-c2ccccc2)n1C | · | i | -1.2%
O=S(=O)(c1ccc(Nc2ccc3c(c2)OCO3)nc1)N1CCOCC1 | 2.1 | i | 8.8%
Cc1cc(N2CCN(Cc3ccccc3)CC2)n2nc(C)c(-c3ccccc3)c2n1 | · | i | 6.0%
Cn1c(=O)[nH]c(=O)c2c1nc(N1CCCCCC1)n2CCSc1nc2ccccc2[nH]1 | -0.04 | i | -3.1%
CCCCC(=O)N(c1ccc(C)c(C)c1)C1C=CS(=O)(=O)C1 (stereo not given) | -1.1 | i | 5.0%
Cc1nnc2n(Cc3ccccc3)c(=O)c3c4c(sc3n12)CN(Cc1ccccc1)CC4 | -0.03 | i | -14%
COc1ccc(NC(=O)C2C3C=CC(C3)C2C(=O)NCc2ccco2)c(OC)c1 (stereo not given) | · | i | -1.3%
CCOC(=O)CSc1nc2cc(C(=O)NCC3CCCO3)ccc2c(=O)n1Cc1ccco1 (stereo not given) | 1.8 | i | -5.1%
CCC(=O)N1CCN(c2ccc(NC(=O)c3cc4ccccc4o3)cc2Cl)CC1 | 1.2 | i | 4.6%
COc1ccc(N2CCN(CCNC(=O)CCS(=O)(=O)c3cccc4nsnc34)CC2)cc1 | 0.55 | i | 2.8%
C=CCOc1c(CNc2ccc(S(N)(=O)=O)cc2)cccc1OC | · | i | 1.3%
O=C(NCC(c1cccnc1)N1CCN(c2ccc(F)cc2)CC1)c1ccc(F)cc1 (stereo not given) | 0.06 | i | -0.1%
COC(=O)c1cc(-c2c(C)oc3cc(O)ccc3c2=O)c(C)o1 | -0.0013 | i | -1.6%
Cc1ccc(C(=O)N/C(=C/c2cccs2)C(=O)N2CCCCCC2)cc1 | · | i | 3.6%
O=C(CN1CCOCC1)Nc1c2c(nc3c1CCC3)CCC2 | 1.3 | i | 2.6%
CCn1c(SCC(=O)Nc2cc(NC(C)=O)ccc2OC)nnc1-c1ccccn1 | -0.34 | i | 1.9%
O=C(COc1ccccc1)Nc1ccc(S(=O)(=O)NCc2ccco2)cc1 | -1.9 | i | 5.3%
Cc1cc(C)c2cc(CN(CCO)C(=O)Nc3ccc(Cl)cc3)c(=O)[nH]c2c1 | -1.3 | i | 3.4%
CCOC(=O)CSc1nnc(CNC(=O)c2cc(OC)c(OC)c(OC)c2)n1C | 0.53 | i | 9.8%
O=S(=O)(Cc1ccccc1)N1CCCC1 | 0.23 | i | -4.0%
COC1CCCCC1Nc1cc(C)cc(C)c1 (stereo not given) | · | i | -4.2%
COc1cc(Cl)c(C)cc1NC(=O)CSC | 1.4 | i | -0.3%
N#C/C(=C1/CCCCCN1)c1nnc2n1CCCCC2 | -0.45 | i | 1.3%
COc1ccccc1OCc1ccc(C(=O)Nc2ccncc2)o1 | 0.0011 | i | -0.1%
CC(C)C12CN3CC(C(C)C)(CN(C1)C3c1ccc3c(c1)OCO3)C2=O (stereo not given) | 0.22 | i | -3.1%
O=C(Nc1ccccc1N1CCN(c2ccccc2)CC1)c1cccc(F)c1 | 1.5 | i | 5.1%
CCOC(=O)c1ccccc1NC(=O)Cn1cnc2c(cnn2-c2ccc(OC)cc2)c1=O | -1.6 | i | 0.9%
CCC(C)[C@H](NC(=O)Nc1cccc(OC)c1)C(=O)OC (stereo not given in full) | -0.52 | i | -2.6%
CCn1cc(C(=O)N2CCN(C(=O)c3ccco3)CC2)c2cc(OC)c(OC)cc2c1=O | 0.41 | i | 1.9%
O=c1/c(=C/c2ccco2)sc2nc(-c3ccccc3Br)nn12 | -0.35 | i | -6.8%
Cn1c(=O)c2c(ncn2CC(O)CNc2ccc(Br)cc2)n(C)c1=O (stereo not given) | -0.23 | i | -3.8%
CS(=O)(=O)N1CCN(CC2CC3C=CC2C3)CC1 (stereo not given) | -0.32 | i | -2.6%
Cc1ccc(Nc2nc(N)nc(CN3CCN(c4ccccc4F)CC3)n2)cc1 | 1.2 | i | 4.3%
Cc1cc(C)n2cc(CSC3=NCCS3)nc2n1 | -0.21 | i | -3.7%
CCC(=O)N1CCN(C(=O)CC)C1c1ccccc1 | 0.73 | i | -0.3%
C=CCc1ccccc1OCC(O)CN(C(C)C)C(C)C (stereo not given) | -0.44 | i | -1.0%
CC1(C)Cc2c(C#N)c(NCCN3CCOCC3)nc(-c3ccco3)c2CO1 | -0.66 | i | 2.7%
CCc1ccccc1N(CC)C(=O)c1cn(CC)c(=O)c2cc(OC)c(OC)cc12 | 0.67 | i | 2.8%
O=C(NCc1ccc2c(c1)OCO2)c1cccs1 | 0.26 | i | -2.4%
CCCCNC(=O)n1c(=O)oc2ccc(Cl)cc21 | · | i | 1.6%
Cc1ccc(S(=O)(=O)NCC(=O)N(CC(=O)NCc2ccccc2)CC2CCCO2)cc1 (stereo not given) | -0.76 | i | -5.6%
CCOC(=O)c1sc(NC(=O)CSc2nnc(Cc3ccccc3)o2)c(C(=O)OCC)c1C | · | i | 0.6%
CCCCCOc1ccccc1C(=O)NCCCC(=O)O | 0.64 | i | -1.9%

# (more compounds)
SMILES | WNV NS2B-NS3 inh | MT1-MMP promoter | Hsc70 ATP site
CC(C)Nc1nc(NC(C)C)nc(Oc2ccc(/C=N/O)cc2)n1 | -0.1 | i | 0.1%
O=C(CC1CCCCC1)Nc1ncn[nH]1 | · | i | -7.5%
Cc1cccc(C(=O)NC2CCN(CC(=O)N3CCOCC3)CC2)c1 | 0.54 | i | 3.8%
CC(=O)NC(CCS(C)(=O)=O)C(=O)Nc1cccc2ccccc12 (stereo not given) | 0.21 | i | 0.7%
COCCCNCC(=O)c1c(N)n(Cc2ccccc2)c(=O)n(C)c1=O | · | i | -2.4%
OCCNCCCCCOc1ccc(F)cc1 | -0.98 | i | -2.5%
CCCC(=O)c1c(NC)cc(C)oc1=O | 0.58 | i | -6.5%
O=C1c2sc3nc4c(c(=O)n3c2C(=O)N1c1ccccc1)CCC4 | -0.05 | i | 2.0%
CS(=O)(=O)N(CC(=O)NCc1cccnc1)Cc1ccc(Cl)cc1 | 3.5 | i | 2.4%
Cc1ccccc1NC(=O)c1cc(S(=O)(=O)N2CCOCC2)ccc1F | 0.47 | i | 3.1%
Cc1ccc(S(=O)(=O)NCCCC(=O)C=[N+]=[N-])cc1 | 1.5 | i | 3.9%
COC(=O)c1cn(C(C)C(=O)NCc2ccco2)c2ccccc12 (stereo not given) | -1.1 | i | -7.7%
Cc1cc(C)nc(N2CCCC(C(=O)NCCc3ccccc3F)C2)n1 (stereo not given) | 1 | i | -4.8%
Cc1cc(=O)[nH]c(SCCCOc2ccc3c(c2)CCC3)n1 | · | i | -1.6%
O=C(c1cc2c(=O)oc3ccccc3c2s1)N1CCN(c2ccccn2)CC1 | 0.27 | i | -1.6%
Cc1cc(C)c2nc(N3CCC(C(=O)N4CCN(c5ncccn5)CC4)CC3)sc2c1 | 0.24 | i | -5.2%
CN(C)c1ccc(-c2nn3c(-c4cccnc4)nnc3s2)cc1 | 0.71 | i | 4.7%
Cc1ccc(OCCOCCn2ccnc2)c(Br)c1 | -0.25 | i | -3.1%
CCOC(=O)c1nnc2c(Br)c(-c3ccccc3)nn2c1C | · | i | -4.1%
COc1ccc(NC(=O)c2ccc(S(=O)(=O)N3CCOCC3)cc2)c(OC)c1 | -0.59 | i | -4.8%
COc1ccc(-n2c(C)c([N+](=O)[O-])c3ccc(O)c(CN4CCCCC4)c32)cc1 | · | i | 6.2%
c1ccc(OCc2nn3c(-c4n[nH]c5c4CCC5)nnc3s2)cc1 | -1.2 | i | -10%
CCN(CC)C(=O)CN(c1ccc(Cl)cc1)S(=O)(=O)c1ccccc1 | · | i | 4.0%
Clc1ccccc1-c1nc(N/N=C/c2cccnc2)c2ccccc2n1 | · | i | -4.9%
c1ccc(Cn2nnnc2C(c2cccnc2)N2CCN(c3ccccc3)CC2)cc1 (stereo not given) | 0.98 | i | 0.3%
O=C(Nc1nnc(C(F)(F)F)s1)C1COc2ccccc2O1 (stereo not given) | · | i | 1.5%
O=C(Nc1ccc(Cc2ccncc2)cc1)C1CCC(N2C(=O)C3C4C=CC(C5CC45)C3C2=O)CC1 (stereo not given) | · | i | 6.4%
CCC(NC(=O)Nc1ncccc1C)(C(F)(F)F)C(F)(F)F | -0.61 | i | 7.2%
Cc1nc2ccccc2nc1OCC(=O)N1CCN(c2ccccc2)CC1 | 0.87 | i | -2.7%
O=C(CSc1ccccn1)Nc1nncs1 | · | i | 3.5%

# Four entries from above, with each value named.
CS(=O)(=O)N(CC(=O)NCc1cccnc1)Cc1ccc(Cl)cc1
  WNV NS2B-NS3 inh: 3.5
  MT1-MMP promoter: i
  Hsc70 ATP site: 2.4%

Cc1ccccc1NC(=O)c1cc(S(=O)(=O)N2CCOCC2)ccc1F
  WNV NS2B-NS3 inh: 0.47
  MT1-MMP promoter: i
  Hsc70 ATP site: 3.1%

Cc1ccc(S(=O)(=O)NCCCC(=O)C=[N+]=[N-])cc1
  WNV NS2B-NS3 inh: 1.5
  MT1-MMP promoter: i
  Hsc70 ATP site: 3.9%

COC(=O)c1cn(C(C)C(=O)NCc2ccco2)c2ccccc12 (stereo not given)
  WNV NS2B-NS3 inh: -1.1
  MT1-MMP promoter: i
  Hsc70 ATP site: -7.7%

# Quoted at random: two records from the list.
SMILES | WNV NS2B-NS3 inh | MT1-MMP promoter | Hsc70 ATP site
OCCNCCCCCOc1ccc(F)cc1 | -0.98 | i | -2.5%
Cc1cc(C)nc(N2CCCC(C(=O)NCCc3ccccc3F)C2)n1 (stereo not given) | 1 | i | -4.8%

# (listing goes on)
SMILES | WNV NS2B-NS3 inh | MT1-MMP promoter | Hsc70 ATP site
Fc1ccc(-c2nc3n(n2)Cc2ccccc2-3)cc1 | 0.24 | + | -1.5%
CN(C)c1nc(N)nc(CSc2nnnn2-c2ccc(C(=O)O)cc2)n1 | · | i | -2.2%
COc1cccc(C2C(C(=O)c3ccc(C)o3)=C(O)C(=O)N2CCCN(C)C)c1 (stereo not given) | 0.94 | i | 0.4%
O=C(CCCNS(=O)(=O)c1cccs1)N1CCN(c2ccc(F)cc2)CC1 | -0.41 | i | -4.9%
Cn1c(=O)oc2cc(S(=O)(=O)N3CCC(N4CCCCC4)CC3)ccc21 | -1.1 | i | 4.7%
CC(C)C(=O)Nc1nc2c(ncn2C2CC(O)C(CO)O2)c(=O)[nH]1 (stereo not given) | -0.002 | i | 4.3%
CCc1nc2ccccc2n(CCOCCOCCn2c(=O)c(CC)nc3ccccc32)c1=O | -0.8 | i | -3.8%
CCOCCSC1=C(C#N)C(c2cccs2)C(C(C)=O)=C(C)N1 (stereo not given) | 0.3 | i | -3.2%
CCCCn1c(NC(=O)c2ccccc2Cl)c(C#N)c2nc3ccccc3nc21 | -0.15 | i | -7.5%
CC(C)=CC/C=C1\CCC(C(=O)O)C(C(=O)O)C1 (stereo not given) | -0.31 | i | 8.2%
Cc1ccc(N2C(=O)CSC2c2cccs2)cc1 (stereo not given) | 1.1 | i | -3.5%
COC(=O)c1[nH]nc2c1C(=O)N(Cc1ccccc1)C2=O | 0.81 | i | 2.9%
N#Cc1cccc(NC(=O)CN2NS(=O)(=O)c3ccccc3C2=O)c1 | · | i | 1.6%
Cc1ccc(-n2c(C)cc(C(=O)CSc3n[nH]c(N)n3)c2C)cc1 | · | i | 2.6%
Cc1ccc(SCCC(=O)N2CCC(C(N)=O)CC2)cc1 | 0.22 | i | 1.2%
Cc1csc(NC(=O)c2cccc(S(=O)(=O)N3CCCCC3)c2)n1 | -0.79 | i | -1.3%

# Screening results: PubChem, several laboratories
